Screening results: PubChem, Broad Institute
HIV Env fusion: inhibitors of HIV-1 Env-driven cell-cell fusion, primary screen, HeLa-JRFL effector, CEM21 target cells, luciferase | inhibition, % at 12.3 µM | 360,000 tested, 1.1% active;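 active = mean replicate inhibition score of at least 50 and every replicate individually at or above 50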;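 also: 0% = plate neutral controls and 100% = maraviroc near 300 nM; one replicate is shown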
UUG fidelity: modulators of yeast start codon fidelity, primary screen, whole organism, S. cerevisiae, single point, plate reader; S. cerevisiae UUG-firefly luciferase reporter, luminescence/redox ratio; activity score, % at 18.7 µM; 350,000 tested, 0.13% active;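 active = replicate mean at a twofold rise or more, about +100% in these data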;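 also: firefly luciferase made from a UUG start codon reports start codon fidelity; reporter light over untreated wells divided by growth signal over untreated wells; some hits fall short of that in this replicate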
An asterisk follows results filed as active; [ ] = another dose, or the depositor's remark.

HIV Env fusion | UUG fidelity | SMILES
44.9[16.7 µM] | 4.2 | C[C@H]1CCCCO[C@@H](CN(C)C(=O)c2ccccc2)[C@@H](C)CN([C@@H](C)CO)C(=O)c2cc(NC(=O)Nc3ccc(F)cc3)ccc2O1
16.4[16.7 µM] | 6.9 | C[C@@H]1CN([C@@H](C)CO)S(=O)(=O)c2ccc(C#CC3CC3)cc2O[C@H]1CN(C)C(=O)c1cccnc1
5.9[16.7 µM] | 4.4 | CCC(=O)N(C)C[C@H]1Oc2cc(C3=CCCC3)ccc2S(=O)(=O)N([C@@H](C)CO)C[C@@H]1C
-33.9[16.7 µM] | -0.6 | CC(C)NC(=O)N(C)C[C@@H]1Oc2cc(-c3cncnc3)ccc2S(=O)(=O)N([C@H](C)CO)C[C@H]1C
1.5[16.7 µM] | 127.6* | CCCC#Cc1ccc2c(c1)O[C@@H](CN(C)C)[C@@H](C)CN([C@H](C)CO)S2(=O)=O
5.6[16.7 µM] | 0.2 | CCNC(=O)C[C@@H]1CC[C@H](NC(=O)NC2CCCCC2)[C@H](CO)O1
28.7[16.7 µM] | -3.7 | CN(C)c1ccc2c(c1)[C@H]1C[C@H](CC(=O)NCc3ccccc3)O[C@H](CO)[C@H]1O2
-15.6[16.7 µM] | -3.5 | C[C@@H]1CN([C@H](C)CO)C(=O)c2cc(NS(=O)(=O)c3cccs3)ccc2O[C@@H](C)CCCCO[C@@H]1CN(C)S(=O)(=O)c1ccc(Cl)cc1
0.4[16.7 µM] | -7.6 | C[C@@H]1CN([C@@H](C)CO)C(=O)c2cc(NC(=O)Nc3ccc(C(F)(F)F)cc3)ccc2O[C@@H](C)CCCCO[C@@H]1CN(C)Cc1ccc(C(F)(F)F)cc1
-3.6[16.7 µM] | 12.5 | COc1ccccc1C(=O)Nc1ccc2c(c1)OC[C@H](C)N(C)C[C@@H](C)[C@@H](OC)CN(C)C2=O
-36.5[16.7 µM] | 6.3 | CCCC#Cc1cnc2c(c1)C(=O)N([C@H](C)CO)C[C@H](C)[C@H](CN(C)C(=O)C1CCCCC1)O2
-21.0[16.7 µM] | -14.2 | C[C@@H]1CCCCO[C@@H](CN(C)S(=O)(=O)c2ccc(F)cc2)[C@H](C)CN([C@@H](C)CO)C(=O)c2cc(NC(=O)Nc3ccc(F)cc3)ccc2O1
8.0[16.7 µM] | 6.7 | CN1CCN(C(=O)C[C@H]2C[C@@H]3c4cc(NC(=O)Nc5ccccc5F)ccc4O[C@@H]3[C@@H](CO)O2)CC1
-26.0[16.7 µM] | 13.6 | Cc1ccc(S(=O)(=O)Nc2cccc3c2O[C@@H](CN(C)C(=O)Nc2ccccc2)[C@@H](C)CN([C@H](C)CO)C3=O)cc1
-1.2[16.7 µM] | 9.9 | COc1ccc(NC(=O)N[C@@H]2CC[C@H](CCNC(=O)c3ccccc3F)O[C@@H]2CO)cc1
15.8[16.7 µM] | 8.1 | O=C(Cc1ccccn1)NCC[C@H]1CC[C@H](NC(=O)c2ccccc2F)[C@H](CO)O1
-8.5[16.7 µM] | -4.4 | C[C@H](CO)N1C[C@H](C)[C@@H](CN(C)C(=O)CC2CC2)Oc2ncc(C#CC3(O)CCCC3)cc2C1=O
-6.6[16.7 µM] | -10.1 | COCC#Cc1ccc2c(c1)O[C@@H](CN(C)Cc1ccccc1F)[C@H](C)CN([C@@H](C)CO)S2(=O)=O
14.4[16.7 µM] | 2.8 | C[C@@H]1CN([C@H](C)CO)C(=O)Cc2cc(NC(=O)Nc3ccc(C(F)(F)F)cc3)ccc2O[C@H]1CN(C)Cc1ccc(C(F)(F)F)cc1
1.6[16.7 µM] | 5.7 | C[C@H]1CN([C@@H](C)CO)C(=O)c2cccc(NC(=O)Nc3ccc(C(F)(F)F)cc3)c2O[C@@H]1CN(C)C(=O)Nc1ccccc1
-7.1[16.7 µM] | 38.0 | COc1ccc(S(=O)(=O)N[C@H]2CC[C@H](CCNC(=O)c3ccccc3F)O[C@H]2CO)cc1
-16.7[16.7 µM] | -24.0 | CO[C@@H]1CN(C)C(=O)c2cc(NS(=O)(=O)c3ccccc3)ccc2OC[C@H](C)N(Cc2ccccn2)C[C@@H]1C
-6.2[16.7 µM] | -11.7 | COC(=O)c1c(CC[C@@H](CO)NC(=O)N[C@@H](Cc2ccccc2)Cn2cc(C3(O)CCCC3)nn2)oc(C(=O)N2CCOCC2)c1C(=O)OC
38.7[16.7 µM] | -9.2 | C[C@@H]1CN([C@H](C)CO)C(=O)c2cc(NC(=O)Nc3ccc(F)cc3)ccc2O[C@@H](C)CCCCO[C@H]1CN(C)C(=O)Nc1ccc(C(F)(F)F)cc1
-2.9[16.7 µM] | -2.3 | C[C@@H]1CN([C@H](C)CO)C(=O)c2cccc(NS(=O)(=O)c3ccccc3)c2O[C@@H]1CN(C)CC1CCCCC1

4 entries out of the list, arranged by SMILES length, ascending:
HIV Env fusion | UUG fidelity | SMILES
-6.6[16.7 µM] | -10.1 | COCC#Cc1ccc2c(c1)O[C@@H](CN(C)Cc1ccccc1F)[C@H](C)CN([C@@H](C)CO)S2(=O)=O
-16.7[16.7 µM] | -24.0 | CO[C@@H]1CN(C)C(=O)c2cc(NS(=O)(=O)c3ccccc3)ccc2OC[C@H](C)N(Cc2ccccn2)C[C@@H]1C
14.4[16.7 µM] | 2.8 | C[C@@H]1CN([C@H](C)CO)C(=O)Cc2cc(NC(=O)Nc3ccc(C(F)(F)F)cc3)ccc2O[C@H]1CN(C)Cc1ccc(C(F)(F)F)cc1
38.7[16.7 µM] | -9.2 | C[C@@H]1CN([C@H](C)CO)C(=O)c2cc(NC(=O)Nc3ccc(F)cc3)ccc2O[C@@H](C)CCCCO[C@H]1CN(C)C(=O)Nc1ccc(C(F)(F)F)cc1

Further results follow:
HIV Env fusion | UUG fidelity | SMILES
-14.3[16.7 µM] | 11.3 | C[C@@H]1CN([C@@H](C)CO)C(=O)Cc2cc(NC(=O)Nc3ccc4c(c3)OCO4)ccc2O[C@H]1CN(C)Cc1ccccc1
-13.4[16.7 µM] | 18.0 | COc1ccc(CN(C)C[C@H]2OCCCC[C@H](C)Oc3ccc(NS(=O)(=O)c4cn(C)cn4)cc3C(=O)N([C@@H](C)CO)C[C@@H]2C)cc1
14.0[16.7 µM] | -2.1 | COc1ccc(NC(=O)Nc2ccc3c(c2)C(=O)N([C@H](C)CO)C[C@@H](C)[C@H](CN(C)S(=O)(=O)c2ccccc2)OCCCC[C@@H](C)O3)cc1
-27.2[16.7 µM] | -1.3 | CO[C@H]1CN(C)C(=O)c2ccc(NC(=O)C3CCCC3)cc2OC[C@@H](C)N(CCC(F)(F)F)C[C@@H]1C
-4.2[16.7 µM] | 16.0 | C[C@@H]1CCCCO[C@@H](CN(C)C(=O)CCCN(C)C)[C@H](C)CN([C@@H](C)CO)C(=O)c2cc(NC(=O)Cc3ccccc3)ccc2O1
3.9[16.7 µM] | 20.1 | C[C@@H]1CCCCO[C@H](CN(C)S(=O)(=O)c2cccs2)[C@H](C)CN([C@H](C)CO)C(=O)c2cc(NC(=O)Cc3ccccc3)ccc2O1
31.2[16.7 µM] | -21.2 | Cc1noc(C)c1NC(=O)Nc1ccc2c(c1)C(=O)N([C@@H](C)CO)C[C@@H](C)[C@H](CN(C)Cc1ccc(Cl)c(Cl)c1)O2
-9.7[16.7 µM] | 2.7 | CC(C)NC(=O)N[C@@H]1CC[C@H](CCNS(=O)(=O)Cc2ccccc2)O[C@@H]1CO
-0.1[16.7 µM] | -9.8 | C[C@H]1CN([C@@H](C)CO)C(=O)c2cc(NC(=O)Nc3cccc4ccccc34)ccc2O[C@@H]1CN(C)Cc1ccc(Oc2ccccc2)cc1
15.9[16.7 µM] | 15.3 | C[C@H](CO)N1C[C@H](C)[C@@H](CN(C)C(=O)Nc2ccc3c(c2)OCO3)Oc2ccc(NC(=O)NC3CCCCC3)cc2CC1=O
-5.6[16.7 µM] | -2.9 | COc1ccc(NC(=O)N(C)C[C@@H]2OCCCC[C@@H](C)Oc3ccc(NC(=O)Nc4cccc5ccccc45)cc3C(=O)N([C@@H](C)CO)C[C@H]2C)cc1
27.4[16.7 µM] | -0.9 | O=C(N[C@H]1CC[C@H](CCn2cc(C3(O)CCCC3)nn2)O[C@H]1CO)C1CCC1
-13.9[16.7 µM] | 0.1 | C[C@@H]1CN([C@H](C)CO)C(=O)Cc2cc(NC(=O)c3ccncc3)ccc2O[C@H]1CN(C)Cc1ccncc1
1.6[16.7 µM] | 4.4 | CNC[C@H]1Oc2ccc(NC(=O)Cc3ccccc3)cc2C(=O)N([C@@H](C)CO)C[C@H]1C
8.1[16.7 µM] | 4.7 | CO[C@H]1CN(C)C(=O)c2cc(NC(=O)Nc3cc(F)ccc3F)ccc2OC[C@@H](C)N(C)C[C@H]1C
-31.4[16.7 µM] | 42.9 | Cc1noc(C)c1NC(=O)N(C)C[C@H]1OCCCC[C@@H](C)Oc2ccc(NC(=O)NC(C)C)cc2C(=O)N([C@H](C)CO)C[C@H]1C
-10.0[16.7 µM] | 1.8 | CN(C)C(=O)[C@@]1(Cc2ccccc2)COC(c2ccc(OCCCO)cc2)=N1
12.2[16.7 µM] | 3.6 | C[C@H]1CN([C@@H](C)CO)S(=O)(=O)c2ccc(C#CC3CC3)cc2O[C@H]1CN(C)Cc1cccc(F)c1
3.8[16.7 µM] | 15.2 | COc1ccc(NC(=O)Nc2ccc3c(c2)CC(=O)N([C@@H](C)CO)C[C@@H](C)[C@H](CN(C)Cc2ccc4c(c2)OCO4)O3)cc1
-325.9[16.7 µM] | 17.2 | C[C@@H]1CN([C@@H](C)CO)C(=O)Cc2cc(NC(=O)Cc3cn(C)c4ccccc34)ccc2O[C@@H]1CN(C)Cc1ccc(C(=O)Nc2ccccc2N)cc1
-4.9[16.7 µM] | 2.3 | COc1ccc(NC(=O)Nc2ccc3c(c2)C(=O)N([C@@H](C)CO)C[C@H](C)[C@@H](CN(C)S(=O)(=O)c2cn(C)cn2)OCCCC[C@H](C)O3)cc1
22.6[16.7 µM] | 0.6 | C[C@@H]1CCCCO[C@H](CN(C)S(=O)(=O)c2ccccc2)[C@@H](C)CN([C@@H](C)CO)C(=O)c2cc(NC(=O)Nc3ccc(F)cc3)ccc2O1
-5.9[16.7 µM] | 8.5 | COc1ccc(CN(C)C[C@@H]2OCCCC[C@@H](C)Oc3ccc(NC(=O)Nc4cccc5ccccc45)cc3C(=O)N([C@@H](C)CO)C[C@@H]2C)cc1
30.5[16.7 µM] | -1.3 | C[C@H](NC(=O)C[C@H]1C=C[C@@H](NS(=O)(=O)c2cccc(F)c2)[C@@H](CO)O1)c1ccccc1
27.7[16.7 µM] | 15.5 | C[C@@H]1CCCCO[C@@H](CN(C)Cc2ccccc2)[C@H](C)CN([C@H](C)CO)C(=O)c2cc(NC(=O)NC3CCCCC3)ccc2O1

Next section; it opens with the 3 that closed the last part.
HIV Env fusion | UUG fidelity | SMILES
-5.9[16.7 µM] | 8.5 | COc1ccc(CN(C)C[C@@H]2OCCCC[C@@H](C)Oc3ccc(NC(=O)Nc4cccc5ccccc45)cc3C(=O)N([C@@H](C)CO)C[C@@H]2C)cc1
30.5[16.7 µM] | -1.3 | C[C@H](NC(=O)C[C@H]1C=C[C@@H](NS(=O)(=O)c2cccc(F)c2)[C@@H](CO)O1)c1ccccc1
27.7[16.7 µM] | 15.5 | C[C@@H]1CCCCO[C@@H](CN(C)Cc2ccccc2)[C@H](C)CN([C@H](C)CO)C(=O)c2cc(NC(=O)NC3CCCCC3)ccc2O1
-62.5[16.7 µM] | 1.4 | C[C@H](CO)N1C[C@H](C)[C@@H](CN(C)C(=O)C2CCCCC2)Oc2cc(C#C[C@@H](C)O)ccc2S1(=O)=O
-7.1[16.7 µM] | 6.4 | CCCC#Cc1cnc2c(c1)C(=O)N([C@@H](C)CO)C[C@@H](C)[C@H](CN(C)Cc1ccccc1)O2
28.1[16.7 µM] | -6.9 | O=C(NCC[C@@H]1CC[C@H](NC(=O)c2ccccc2F)[C@H](CO)O1)c1ccc2c(c1)OCO2
0.6[16.7 µM] | 1.1 | C[C@H](CO)N1C[C@H](C)[C@H](CN(C)C(=O)c2ccc(F)cc2)Oc2ncc(-c3ccc(F)cc3)cc2C1=O
-7.5[16.7 µM] | 1.8 | NCC[C@@H]1CC[C@H](NC(=O)Nc2ccc(F)cc2)[C@H](CO)O1
-8.4[16.7 µM] | -9.0 | Cc1ccc(-c2cnc3c(c2)C(=O)N([C@@H](C)CO)C[C@@H](C)[C@H](CN(C)CC2CCOCC2)O3)cc1
-3.5[16.7 µM] | 8.8 | C[C@H](CO)N1C[C@H](C)[C@@H](CN(C)CC2CCCCC2)OCCCC[C@H](C)Oc2ccc(NC(=O)CCC(F)(F)F)cc2C1=O
7.9[16.7 µM] | -7.8 | C[C@@H]1CN([C@H](C)CO)C(=O)c2cc(NS(=O)(=O)c3ccc(Cl)cc3)ccc2O[C@@H]1CN(C)S(=O)(=O)c1ccc(Cl)cc1
17.6[16.7 µM] | 13.4 | COc1ccc(S(=O)(=O)N(C)C[C@@H]2OCCCC[C@H](C)Oc3ccc(NC(=O)CCC(F)(F)F)cc3C(=O)N([C@@H](C)CO)C[C@@H]2C)cc1
11.6[16.7 µM] | -1.6 | C[C@@H]1CCCCO[C@@H](CN(C)C(=O)C2CCCCC2)[C@H](C)CN([C@@H](C)CO)C(=O)c2cc(NC(=O)c3ccncc3)ccc2O1
1.8[16.7 µM] | 5.5 | C[C@@H]1CN([C@H](C)CO)S(=O)(=O)c2ccc(-c3cncnc3)cc2O[C@@H]1CN(C)C(=O)c1ccc2c(c1)OCO2
-13.1[16.7 µM] | -16.6 | COc1ccc(S(=O)(=O)Nc2ccc3c(c2)C(=O)N([C@H](C)CO)C[C@H](C)[C@@H](CN(C)C(=O)Nc2ccccc2)OCCCC[C@@H](C)O3)cc1
-9.5[16.7 µM] | 47.1 | C[C@@H]1CN([C@H](C)CO)S(=O)(=O)c2ccc(C#CCN(C)C)cc2O[C@H]1CN(C)CC1CCCC1
18.1[16.7 µM] | 3.0 | Cc1noc(C)c1NC(=O)N(C)C[C@H]1OCCCC[C@H](C)Oc2ccc(NS(=O)(=O)c3c(C)noc3C)cc2C(=O)N([C@@H](C)CO)C[C@@H]1C

An excerpt; count on the stated rates, not on these rows.
